Screening data (PubChem BioAssay)
Vif A3G: inhibitors of Vif binding to APOBEC3G peptide, primary screen, biochemical, TR-FRET, GST-Vif 1-94, biotin-A3G peptide, dose response retest (AID 1117319) | TR-FRET GST-Vif / biotin-A3G peptide binding; higher % means a stronger effect; test concentration not given here; strong numbers were not always called active | 0.57% of 260,000 active | Virion infectivity factor (Human immunodeficiency virus type 1 group M subtype B (isolate … | inhibition, %; hits with a dose series show IC50 in µM;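 active means above the screen mean plus three standard deviations and confirmed in dose response; inconclusive means results disagree or hit not tested in dose response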;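 further: Vif residues 1-94 fused to GST binding biotinylated APOBEC3G peptide 110-148; 0% = full assay without inhibitor and 100% = GST in place of GST-Vif; retest series ran down from 100 µM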
E coli growth: E. coli growth inhibition, primary screen, OD600. Escherichia coli growth, 23 h; active compounds read low. OD600 absorbance (no concentration beside the values). 0.21% of 330,000 active. AID 1053175, 2014;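 active means OD600 absorbance below the run mean of sample wells minus 3.6 SD, in any replicate, cut at about 0.56 in these data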;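 further: stock transfer was 300 nL into about 60 µL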
MLL AF4-AF9 inh: inhibitors of AF4 peptide binding to AF9, primary screen, biochemical, AlphaScreen, biotin-AF4 peptide, FLAG-AF9, single point; Protein AF-9 (Homo sapiens), P42568; 0.47% of 350,000 active; AID 651704, 2012; inhibition, % at 10 µM;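 active means every replicate reaching a set inhibition limit, whatever the replicate mean, cut at about 25% in these data; inconclusive means mean inhibition reaches that limit but some replicates miss it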;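 further: 0% = plate neutral control median and 100% = total signal loss; the record names both 10 and 1 µM as test concentration; the first replicate is given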
Ecoli rRNA inh: reduced GFP signal of wild-type E. coli, primary screen, bacterial rRNA inhibitor project, GFP/RFP fluorescence, OD600, single point; E. coli WT GFP vs humanized-ribosome RFP mutants, 24 h; active compounds read low; DMSO median 0, no signal -100; GFP signal change (wild-type ribosome), % (concentration not given with the values); 1.6% of 350,000 active; AID 720706, 2013;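 active means significant combined selectivity score with lowered wild-type GFP, culture density cut under 30%, mutant RFP and density less affected; inactive means any of these conditions unmet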; further: one replicate is shown; some compounds called inactive have numbers as strong as hits
FGF22 binding: binders of human FGF22 protein, primary screen, FGF22 synaptogenesis inhibitor project, biophysical, thermal shift, single point; Fibroblast growth factor 22 (Homo sapiens), Q9HCT0; recombinant FGF22 thermal shift, SYPRO orange fluorescence; percent of sucrose octasulfate shift, DMSO zero; calls only at 9.99 µM; 1.5% of 340,000 active; AID 651658, 2012;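 active means melting point raised past a set limit in the mean and every replicate; inconclusive means no clear call; three in four hits are not shown here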
Target sequence (Q9HCT0 whole entry, looked up): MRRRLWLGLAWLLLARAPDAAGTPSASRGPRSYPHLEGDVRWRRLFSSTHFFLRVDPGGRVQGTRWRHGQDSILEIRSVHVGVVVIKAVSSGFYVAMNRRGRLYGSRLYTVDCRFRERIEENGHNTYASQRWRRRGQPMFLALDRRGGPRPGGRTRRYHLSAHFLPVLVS
HNF4A DNA FP: change in binding of human HNF4A to DNA, primary screen, biochemical, fluorescence polarization, FITC-DNA. 1 h. activity change, % at 10 µM. 0.3% of 360,000 active; in the data active means activity change above about 30%, passing the limit was not always enough;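 further: controls were the assay level and a saturating level of protein; the project sought stronger binding though the title names inhibitors; some compounds called inactive have numbers as strong as hits; positive values seem to mean higher polarization but the record does not say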
Target sequence (P41235 whole entry, looked up): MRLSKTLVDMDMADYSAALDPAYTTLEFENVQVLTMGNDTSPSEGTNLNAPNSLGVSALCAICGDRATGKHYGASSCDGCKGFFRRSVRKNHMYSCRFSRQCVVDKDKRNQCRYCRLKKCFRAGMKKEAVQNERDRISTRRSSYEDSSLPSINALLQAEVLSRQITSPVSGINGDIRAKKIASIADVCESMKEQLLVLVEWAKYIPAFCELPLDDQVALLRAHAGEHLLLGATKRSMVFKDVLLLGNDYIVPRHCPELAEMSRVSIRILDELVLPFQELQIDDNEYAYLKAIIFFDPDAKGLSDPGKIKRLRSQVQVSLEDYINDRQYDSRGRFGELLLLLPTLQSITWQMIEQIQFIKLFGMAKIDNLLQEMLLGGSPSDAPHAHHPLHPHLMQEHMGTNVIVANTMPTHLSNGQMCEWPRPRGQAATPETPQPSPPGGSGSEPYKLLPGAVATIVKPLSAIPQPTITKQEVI
ALR inh: inhibitors of human ALR sulfhydryl oxidase, primary screen, biochemical, H2O2 detection, HRP-luminol luminescence, single point | FAD-linked sulfhydryl oxidase ALR (Homo sapiens), P55789 | purified ALR, DTT oxidation | inhibition, % (no concentration beside the values) | 3.8% of 290,000 active;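 active means mean and each replicate at 75% or more; inconclusive means only one of the two met; inactive means neither met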;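 further: stock transfer was 7.5 nL into about 7.5 µL; 0% = neutral wells and 100% = wells with inactivated enzyme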
Target sequence (P55789 whole entry, looked up): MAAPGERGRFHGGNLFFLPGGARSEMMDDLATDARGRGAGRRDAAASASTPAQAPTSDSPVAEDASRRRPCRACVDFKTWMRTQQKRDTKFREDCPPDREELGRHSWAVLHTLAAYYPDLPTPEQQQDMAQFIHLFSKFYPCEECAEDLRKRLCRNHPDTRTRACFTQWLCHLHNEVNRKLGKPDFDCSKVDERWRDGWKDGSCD
Ecoli rRNA inh OD600: further read-out of Ecoli rRNA inh, marked with its call; OD600 change, %; measured here: OD600 growth;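 optical density of the mix in the first replicate; 0 = DMSO median and -100 = no signal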
Ecoli rRNA inh RFP: second read-out of Ecoli rRNA inh, no call of its own (marks repeat the call); RFP signal change, %; measured here: RFP humanized mutant strains;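 first replicate; 0 = DMSO median and -100 = no signal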
An asterisk follows results filed as active; i = inactive; u = inconclusive; x = no result given; & = joins results of further samples. The list is partial; rates above refer to the full screens.

SMILES	Vif A3G	E coli growth	MLL AF4-AF9 inh	Ecoli rRNA inh	Ecoli rRNA inh OD600	Ecoli rRNA inh RFP	FGF22 binding	HNF4A DNA FP	ALR inh
Cc1ccccc1NC(=O)c1cccc(N2C(=O)C3CCC(C)CC3C2=O)c1 (stereo not drawn)	x	0.68	-3.5	5	-3	-1.8	i	-0.1	x
COc1ccc(S(=O)(=O)Nc2cccc3c2O[C@@H](CN(C)Cc2ccc(-c4ccccc4)cc2)[C@@H](C)CN([C@H](C)CO)C3=O)cc1	x	x	-4.1	3	12	1.3	i	x	x
COc1ccc(-c2csc(NC(=O)CSc3nc4ccccc4c(=O)[nH]3)n2)cc1	x	0.73	-3.0	-3	-14	6.6	i	5.7	x
CCN(CC(=O)Nc1c(F)cccc1F)C(=O)C1CC1	-13%	0.65	-1.0	5	12	-0.8	i	1.6	-1
O=C(c1cccc(Cl)c1)N1CCN(S(=O)(=O)c2ccc(Cl)s2)CC1	4%	0.71	0.6	x	x	x	i	-1.9	-4
O=[N+]([O-])c1cccc(S(=O)(=O)[N-]c2nc3ccccc3nc2-n2cc[n+](Cc3ccccc3)c2)c1	-5%	0.69	-2.7	12	13	0.7	i	0.8	-11
FC(F)(F)c1ccc(Cl)c(-n2c(-c3cc(C4CC4)[nH]n3)n[nH]c2=S)c1	x	0.71	-6.9	0	-11	-8.3	i	3.5	78*
COc1ccc(S(=O)(=O)Nc2ccc3c(c2)C(=O)N([C@@H](C)CO)C[C@@H](C)[C@H](CN(C)Cc2ccc(C(=O)Nc4ccccc4N)cc2)O3)cc1	x	x	1.2	-2	0	3.8	i	x	x
COc1ccccc1CCC(=O)Nc1nccs1	x	0.7	-0.4	-3	2	-0.9	i	3.4	x
Cn1c(SCc2cccc(Br)c2)nc2c1c(=O)[nH]c(=O)n2C	x	0.7	-1.2	13	9	2.5	i	-1.6	x
Cn1cnnc1Sc1ccc(C(=O)NCCC23CC4CC(CC(C4)C2)C3)cc1[N+](=O)[O-]	0%	0.68	x	x	x	x	x	0.0	x
CCCSc1nc2ccsc2c(=O)n1CC	1%	0.72	-3.7	-13	-26	-5.8	x	-2.8	-16
Cc1ccc([N+](=O)[O-])c(NC(=O)COC(=O)CCNS(=O)(=O)c2cccs2)c1C	-7%	x	-0.4	6	6	1.5	i	2.4	x
O=C(CSCC(=O)N1CCCCC1)OCC(=O)c1c[nH]c2ccccc12	4%	0.61	x	-21	-16	-3.8	x	7.8	98*
CC(=O)NCCc1ccc(S(=O)(=O)Nc2ccc(C)c(S(=O)(=O)N3CCOCC3)c2)cc1	x	0.69	5.1	-3	-7	-13	i	0.7	-9
Cc1ccc(S(=O)(=O)NC2CC(C)(C)NC(C)(C)C2)cc1	2%	0.65	0.9	8	13	0.6	i	5.6	-3
COc1ccc(CNC(=O)C[C@H]2C[C@H](C(=O)N3CCCCC3)[C@@]3(C)c4[nH]c5cc(CCC(=O)N(C)C)ccc5c4CCN3C2=O)cc1OC	-1%	0.71	1.2	5	-2	-1.9	i	-0.4	x
COc1cc(NCCCn2cnc3c(OCc4ccccc4)ncnc32)cc(OC)c1OC	1%	x	3.7	2	-1	-1.2	i	0.1	x
O=C1NC(=Nc2ccc(O)cc2)S/C1=C\C=C\c1ccco1	5.1µM*	0.72	-11	-24*	9.4*	10*	i	-1.4	71
Clc1ccc(Nc2cc(-c3ccccc3)nc3ncnn23)cc1	-12%	0.72	2.2	5	5	-0.3	i	2.4	-6
OCCN1CCN(CC(O)COc2ccc(Cl)cc2)CC1 (stereo not drawn)	u	0.59	x	x	x	x	x	0.8	7
CCCCN(C(=O)c1ccc(NC2CC2)c([N+](=O)[O-])c1)c1c(N)n(CC(C)C)c(=O)[nH]c1=O	-4%	0.68	-0.6	3	9	-2.9	i	1.7	1
N#Cc1c(C(F)(F)F)cc(-c2ccccc2)n(N)c1=O	x	0.63	-2.1	1	0	0.1	i	2.9	-8
c1ccc(N2CCN(c3nnnn3-c3ccccc3)CC2)cc1	1%	0.67	x	x	x	x	x	0.2	58
Cc1ccc2c(c1)N(C(=O)CCC(=O)NC1CCC(C)CC1)CCO2 (stereo not drawn)	x	0.7	-6.1	0	-13	-3.0	i	1.8	20
COc1ccc(OC)c2sc(NC(=O)c3ccc(Cl)s3)nc12	-1%	0.76	-0.9	-2	17	-2.5	i	1.5	-1
COC(=O)c1c(-c2cccc(C)c2)csc1N	21%	0.7	x	x	x	x	x	0.1	71
COCC(=O)N1CCC(Oc2ccc(C(=O)N(C)C3CCCCC3)cc2)CC1	x	0.63	-15	-3	-2	0.7	i	-3.7	-2
CCN1C(=N)N(c2ccccc2)C(=O)C(CC)(CC)C1=O	1%	0.67	-0.1	8	-5	2.2	i	-2.3	x
CCCCc1c(C)nc2ccc(Br)cc2c1SC(N)N	6%	0.64	2.9	x	x	x	i	0.4	x
CNC[C@@H]1Oc2cc(C#CC(C)C)ccc2S(=O)(=O)N([C@@H](C)CO)C[C@H]1C	x	x	3.5	3	2	12	i	x	x
C[C@H]1CN([C@@H](C)CO)C(=O)Cc2cc(NC(=O)C3CC3)ccc2O[C@@H]1CN(C)C(=O)Nc1ccccc1	x	x	-1.0	1	-2	0.1	i	x	x
COc1ccc(C2CC(=O)c3cnn(-c4nc(C)cc(C)n4)c3C2)cc1 (stereo not drawn)	x	0.71	-0.6	7	6	1.4	i	4.9	-8
Cc1ccc(O)c(-c2cc(-c3ccc(F)cc3)no2)c1	x	0.7	-1.5	-1	6	0.5	i	-1.1	3
Cc1c(NC(=O)c2ccc(F)cc2)c(=O)n(-c2ccccc2)n1C	-6%	0.73	4.9	17	11	1.9	i	3.2	-19
CC1=NC(C(F)(F)F)(C(F)(F)F)C(C#N)=C(C)N1	6%	0.69	x	x	x	x	x	3.7	-2
C[C@H]1CN([C@@H](C)CO)C(=O)Cc2cc(NC(=O)CCC(F)(F)F)ccc2O[C@@H]1CN(C)S(=O)(=O)c1ccc(F)cc1	x	x	-2.5	2	1	0.6	i	x	x
CCCNC(=O)C[C@@H]1CC[C@@H]2[C@@H](COc3ccc(NC(=O)c4cccc(F)c4)cc3C(=O)N2C)O1	x	x	-2.0	2	5	-2.4	i	x	x
CS(=O)(=O)Cc1cccc(C(=O)NC2CCSc3ccccc32)c1 (stereo not drawn)	0%	0.66	0.2	-3	1	-0.5	i	-2.3	-3
CC1CN(Cc2nnc(-c3ccccc3)o2)CC(C)O1 (stereo not drawn)	-7%	0.72	3.3	8	8	0.0	i	-2.6	-24
CCOc1ccc(C(=O)NCc2ccc3c(c2)OCO3)cc1OCC	x	0.7	-3.8	16	17	3.5	i	-1.2	0
COC(=O)c1[nH]c2cc(OC)ccc2c1NC(=O)CCN1CCN(c2cccc(C)c2C)CC1	8%	0.69	x	x	x	x	x	1.8	-4
CCN(CC)S(=O)(=O)c1cccc(C(=O)OCC(=O)Nc2ccc3c(c2)c2ccccc2n3CC)c1	-1%	0.74	-1.5	11	12	3.6	i	12	-4
C=CCn1c(COc2ccc(F)cc2)nnc1SCC(=O)NC1CCS(=O)(=O)C1 (stereo not drawn)	2%	0.65	-0.4	5	7	-0.7	i	2.7	0
COc1ccccc1NC(=O)NCCN1CCN(c2cccc(Cl)c2)CC1	-3%	0.65	-1.9	-2	2	7.0	i	4.7	4
Cc1ccc([N+](=O)[O-])cc1N=C(c1cccc(Br)c1)N1CCOCC1	4%	0.69	x	x	x	x	x	1.4	-5
Cc1ccc(CCN2CC(C(=O)NCCN3CCCCCC3)CC2=O)cc1 (stereo not drawn)	-3%	0.71	x	x	x	x	x	1.6	-4
CC1=CC(C)(C)N2C(=O)C3(C(C#N)=C(N)Oc4cc(C)oc(=O)c43)c3cccc1c32 (stereo not drawn)	16%	0.74	x	x	x	x	x	-1.7	-4
c1ccc2sc(SN3CCOCC3)nc2c1	0%	0.66	x	x	x	x	x	-2.0	7
COc1ccc(NC(=O)N(C)C[C@H]2Oc3c(NC(=O)c4nc5ccccc5s4)cccc3C(=O)N([C@H](C)CO)C[C@@H]2C)cc1	x	x	-1.6	-1	-7	1.5	i	x	x
CCS(=O)(=O)N1CCCCN2[C@H](CO)[C@H](c3ccc(-c4ccc(C#N)cc4)cc3)[C@H]2C1	x	x	3.8	-3	-8	3.4	i	x	x
O=C(O)CC1(CC(=O)NCc2csc(-c3cccs3)n2)CCCCC1	18%	0.61	-2.7	-25	-16	-7.0	i	-4.4	x
C[C@H](CO)N1C[C@H](C)[C@@H](CN(C)S(=O)(=O)c2ccccc2)Oc2c(cccc2N(C)C)C1=O	x	0.75	-2.2&2.0	-4&-17	0&-6	1.5&-6.2	i	0.8	1
COc1ccc(NC(=O)N(C)C[C@@H]2OCCCC[C@H](C)Oc3ccc(NS(=O)(=O)c4ccccc4)cc3C(=O)N([C@@H](C)CO)C[C@@H]2C)cc1	x	x	3.4	-3	-3	-1.2	i	x	x
O=C(C[C@H]1C[C@H]2c3cc(NC(=O)Nc4ccccc4F)ccc3O[C@H]2[C@H](CO)O1)NCc1ccccn1	x	x	-0.4	-5	-1	2.1	i	x	x
Cc1cc(C)n(-c2nnc(C)c(=O)[nH]2)n1	3%	0.7	x	0	3	-1.3	x	4.3	-4
COc1cccc(NC(=O)c2cccc(OC)c2OC)c1	12%	0.71	x	x	x	x	x	0.1	-6
COc1ccc(CN2C(=O)c3cccnc3C2Nc2cc(Cl)ccc2OC)cc1 (stereo not drawn)	1%	0.63	x	-8	-20	1.4	x	9.7	-39
O=C(C[C@@H]1CC[C@@H]2[C@H](COC[C@H](O)CN2Cc2cccc(Cl)c2)O1)NCC1CCCCC1	x	x	0.1	-33	-73	-1.4	i	x	x
CC(=O)c1cccc(-c2ccnc3c2CC(C(=O)Nc2ccc(C(C)C)cc2)O3)c1 (stereo not drawn)	x	x	1.1	-11	-26	-1.8	i	0.2	x
C/C(=N\NC(=O)c1nnn(-c2nonc2N)c1-c1ccc2c(c1)OCO2)c1ccc(F)cc1	x	x	-0.9	3	8	1.5	i	3.0	-1
COc1ccc(-c2csc(C(C)(O)c3ccccc3)n2)cn1 (stereo not drawn)	x	x	-6.7	-3	-13	-7.7	i	4.4	x

3 compounds from above, sorted by their value in Ecoli rRNA inh RFP, lowest first.
SMILES	Vif A3G	MLL AF4-AF9 inh	Ecoli rRNA inh	Ecoli rRNA inh OD600	Ecoli rRNA inh RFP	HNF4A DNA FP	ALR inh
C=CCn1c(COc2ccc(F)cc2)nnc1SCC(=O)NC1CCS(=O)(=O)C1 (stereo not drawn)	2%	-0.4	5	7	-0.7	2.7	0
COc1ccc(CN2C(=O)c3cccnc3C2Nc2cc(Cl)ccc2OC)cc1 (stereo not drawn)	1%	x	-8	-20	1.4	9.7	-39
CCN(CC)S(=O)(=O)c1cccc(C(=O)OCC(=O)Nc2ccc3c(c2)c2ccccc2n3CC)c1	-1%	-1.5	11	12	3.6	12	-4
